2A firefly = FMDV 2A StopGo reporter, firefly signal; HEK cells with a luciferase reporter of 2A StopGo recoding; hit rate 0.23% among 120,000; Potency, µM (doses to about 57.5 µM), for the others: at the top dose signal change, negative = less light; active = well fitted falling curve with a large enough effect; inconclusive = small, poorly fitted or top-dose-only effect; inactive = no such curve, though single readings can be large or run the other way; further: nearly all actives have a fitted effect of over 60% in size; overnight with compound
2A Renilla = lowers the Renilla signal of an FMDV 2A StopGo reporter; HEK cells with a luciferase reporter of 2A StopGo recoding; Potency, µM (doses to about 57.5 µM), for inactives: at the highest dose signal change, negative = less light; hit rate 0.32% among 120,000; AID 1745857; active means well fitted falling curve with a large enough effect; inconclusive means small, poorly fitted or top-dose-only effect; inactive means no such curve, though single readings can be large or run the other way; further: nearly all actives have a fitted effect of over 55% in size; overnight with compound
An asterisk follows results filed as active; ? = inconclusive; & = joins results of further samples; [ ] = remark or other dose. On the % scale 0 is the no-effect control and ±100 the full control effect; potency means the concentration at half of the fitted maximal effect.

SMILES	2A firefly	2A Renilla
CN(C)S(=O)(=O)c1ccc(C(=O)NCCS(=O)(=O)N2CCN(c3ccccc3)CC2)cc1	-5%	9%
CCOP(=O)(OCC)c1nc(-c2ccc([N+](=O)[O-])cc2)oc1NCc1ccccc1	-8%	68%[activator]
COc1cc(/C=C(\C#N)c2nc3ccccc3[nH]2)ccc1OCc1ccc(F)cc1	133%[activator]	-7%
COc1ccc(NC(=O)CSc2nc3ccccc3n2CC(=O)Nc2cccc(C)c2C)cc1	13%	12%
COc1ccccc1CNC(=O)CN(c1ccc(C)cc1)S(=O)(=O)c1c(C)n[nH]c1C	36%[activator]	156%[activator]
Cc1nc2ccccc2nc1SCC(=O)N1CCCC(C)C1 (stereo not given)	-28%	?
CCOc1ccccc1CNC(=O)c1cc2oc3ccccc3c2n1CC	-20%	?
Cn1cccc1/C=C(\C#N)c1ccc(Cl)cc1Cl	0%	2%
CCc1ccc2oc(C(=O)Nc3ccc(S(=O)(=O)N(C)c4ccccc4)cc3)cc(=O)c2c1	-9%	-5%
O=C(COC(=O)C1COc2ccccc2O1)NC(=O)NC1CCCC1 (stereo not given)	0%	-4%
CC(=O)Nc1nnc(Cc2ccccc2F)s1	13%	3%
COc1ccc(S(=O)(=O)Nc2cc(C)cc(C)c2)c2cccnc12	15%	-37%

Overlap with the part before: 2 entries; new compounds follow.
SMILES	2A firefly	2A Renilla
CC(=O)Nc1nnc(Cc2ccccc2F)s1	13%	3%
COc1ccc(S(=O)(=O)Nc2cc(C)cc(C)c2)c2cccnc12	15%	-37%
Cc1ccc(C)c(/C=C(/C#N)S(C)(=O)=O)c1	1%	14%
COc1ccc(N2CN(CCN3CCOCC3)Cn3c2nc(C)c(C)c3=O)cc1	28%	-3%
N#Cc1ccc(OCCOC(=O)c2ccc(COc3ccccc3)o2)cc1	48%[activator]	7%
Cc1ccc(CNC(=O)CSCc2ccc(F)cc2)cc1	-4%	-1%
CC(=O)Nc1cccc(-c2nc3cc(C)cc(C)c3o2)c1	238%[activator]	19%
CCOc1ccc(CNC(=O)CN2C(=O)C(C)=C(c3ccc(C)c(C)c3)S2(=O)=O)cc1OC	8%	13%
CN(CC(=O)Nc1ccccc1Br)C(=O)CCc1ncc(-c2ccc(F)cc2F)o1	0%	-2%
COc1cccc(CNC(=O)c2ccc3c(c2)nc2n3CCC(C)C2)c1 (stereo not given)	58%[activator]	-5%
CCC(=O)Nc1cc(C)c(O)c(-c2nc3cc(C(C)C)ccc3o2)c1	60%[activator]	-10%
COC(=O)c1sc(N2C(=O)c3oc4ccccc4c(=O)c3C2c2ccc(O)cc2)nc1C (stereo not given)	-7%	-5%
C#CCNC(=O)c1ccccc1NCC(=O)NC(=O)NCc1ccccc1	9%	18%
O=S(=O)(NCc1ccccc1Cl)c1ccc2c(c1)OCCO2	10%	42%[activator]
Cc1c(Cl)cccc1NC(=O)COC(=O)c1cc(=O)c2ccccc2o1	0%	-11%
CCc1nc2nc(C)c(NS(=O)(=O)c3ccc(F)c(C)c3)c(=O)n2[nH]1	-3%	48%[activator]
CC/C=C(/C)C(=O)Nc1cccc(SC)c1	0%	7%
Cc1ccc(-n2nnc(-c3nc(-c4cccs4)no3)c2N)c(C)c1	38%	-8%
CCN(C(=O)CCn1cnc2c1c(=O)n(C)c(=O)n2C)c1ccccc1C	0%	3%
CCOC(=O)N1CCC(NC(=O)c2ccc3c(c2)N(Cc2ccc(F)cc2)C(=O)c2ccccc2S3(=O)=O)CC1	0%	74%[activator]
O=C(COc1ccc(Cl)cc1)NCCc1csc(-c2ccc(C(F)(F)F)cc2)n1	-15%	-15%
Cc1ccc(-c2cnc(NCc3ccc(C(C)C)cc3)n2C)cc1	-3%	-4%
CC(C)(C)c1ccc(C(=O)NC(Cc2c[nH]c3ccccc23)C(=O)O)cc1 (stereo not given)	6%	5%
Cc1cc(C)nc(Nc2nc(C)c3cc(C)c(C)cc3n2)n1	3%	-14%
Cc1ccc(-c2cc(C(F)(F)F)n3nc(-c4ccc(Cl)cc4)cc3n2)cc1	4%	-7%
CCCCN(CC)C(=O)C1CCCN(c2ncnc3onc(C)c23)C1 (stereo not given)	-28%	?

Complete entries, quoted from the list.
CC(C)(C)c1ccc(C(=O)NC(Cc2c[nH]c3ccccc23)C(=O)O)cc1 (stereo not given) is listed with 2A firefly: 6%; 2A Renilla: 5%
Cc1ccc(-n2nnc(-c3nc(-c4cccs4)no3)c2N)c(C)c1 is listed with 2A firefly: 38%; 2A Renilla: -8%

Returning to the listing, starting 5 compounds before the break.
SMILES	2A firefly	2A Renilla
Cc1ccc(-c2cnc(NCc3ccc(C(C)C)cc3)n2C)cc1	-3%	-4%
CC(C)(C)c1ccc(C(=O)NC(Cc2c[nH]c3ccccc23)C(=O)O)cc1 (stereo not given)	6%	5%
Cc1cc(C)nc(Nc2nc(C)c3cc(C)c(C)cc3n2)n1	3%	-14%
Cc1ccc(-c2cc(C(F)(F)F)n3nc(-c4ccc(Cl)cc4)cc3n2)cc1	4%	-7%
CCCCN(CC)C(=O)C1CCCN(c2ncnc3onc(C)c23)C1 (stereo not given)	-28%	?
Cc1cc(C)nc(NC(=O)Nc2ccc(F)cc2)c1	23%	2%
CCC(C)[C@H](NC(=O)NCc1ccccc1F)C(=O)O (stereo not given in full)	11%	1%
CCc1ccc2oc(C(=O)Nc3nc(-c4ccc(F)cc4)ns3)c(C)c2c1	0%	-14%
CCN1CCN(C(c2ccccc2)c2c(O)cc(C)n(CC)c2=O)CC1 (stereo not given)	0%	34%[activator]
Cc1ccc(S(=O)(=O)NCCc2nnc3ccc(SCc4ccccc4F)nn23)cc1	-3%&-2%	129%&74%[activator]
O=C(OCc1nnnn1-c1ccccc1)C1(c2ccc(Cl)cc2)CCC1	22%	24%
CCCC(=O)Nc1ccc(Cl)c(NC(=O)c2cccc3ccccc23)c1	-11%	0%
N#Cc1ccc(OCCSCc2cccc(F)c2)cc1	18%	0%
c1ccc2c(c1)CCN2CC1CCNCC1	-16%	-12%
Cc1nc2c(cc(Oc3cnccn3)c3ccsc32)s1	76%[activator]	-12%[1.06 µM]
Fc1ccccc1-c1nc(N2CCCC2)c2ccccc2n1	-9%	-10%
Cc1cc(I)ccc1NC(=S)NCCc1ccccc1	54%[activator]	349%[activator]
NC(=O)CSc1nnc(CNC(=O)c2ccc(Cl)cc2)n1-c1ccccc1	-8%	0%
CCN1CCN(C(c2cccc(Cl)c2)c2c(O)cc(C)n(CCOC)c2=O)CC1 (stereo not given)	-19%	-18%
O=C(c1cccc(Cl)c1)N1CCN(CCc2ccncc2)CC1	-15%	-16%
COc1ccc(-c2cc3ccc(OCC=C(C)C)cc3oc2=O)c(OC)c1	25%	-13%
CCCc1ccc(-c2csc(NC(=O)Cn3ncc4ccccc4c3=O)n2)cc1	78%[activator]	-6%
Cc1cc(O)c(C(c2ccccc2)N2CCC(C)CC2)c(=O)n1Cc1ccco1 (stereo not given)	8%	10%
COc1cc2c(C(=O)Nc3cc(OC)c(OC)c(OC)c3)cn(C)c(=O)c2cc1OC	-3%	-8%
Cc1ccc2c(c1)cc(S(=O)(=O)c1ccccc1)c(=O)n2CC(=O)N1CCCC1	18%	97%[activator]
COc1ccc(Br)cc1CNC(=O)c1cc2n(n1)CCCN(Cc1ccc(C)cc1)C2=O	-14%	92%[activator]
Nc1ccc(OCCCl)c(OCCCl)c1	0%	5%
O=C(CCCCCCCC(=O)NCCCN1CCOCC1)NCCCN1CCOCC1	24%	12%
COc1ccc(C(=O)Sc2ccc(C)cc2)cc1	64%[activator]	-10%
CC(=O)c1cccc(NC(=O)Nc2cccc(Br)c2)c1	11%	2%
CC(C)Cc1nc(N2CCNCC2)c(C#N)c2c1CCCC2	-6%	-6%
CN(C)c1ncccc1CNC(=O)Cc1ccc(F)cc1	33%	3%
CCN(CC)CCNC(=O)C1CCN(C(=O)c2cnn(-c3ccccc3)c2-n2cccc2)CC1	34%[activator]	-6%
COC(=O)c1ccccc1NC(=O)c1ccc(COc2cc(C)cc(C)c2)o1	-17%	-7%
CSc1ccc(CCNC(=O)c2cc3n(n2)CCCN(Cc2ccc(C)cc2)C3=O)cc1	-12%	11%
COc1ccc(C(=O)Nc2nnc(S(=O)(=O)N(C)c3ccc(C)cc3)s2)cc1	-2%	-13%
CC(C)(C)SCC(=O)NCC1CCN(c2ccccc2)C1 (stereo not given)	1%	3%
CCc1ccccc1N1CC(c2nc3ccccc3n2CCCCOc2ccccc2OC)CC1=O (stereo not given)	-14%	16%
CCCCN(Cc1cc2cc(OC)ccc2[nH]c1=O)S(C)(=O)=O	4%	-1%
Cc1ccc(N=Cc2ccc(N(C)C)cc2)c(C)c1	21%	0%
COc1ccc(Cl)cc1NC(=O)c1cc(-c2ccc3c(c2)OCO3)on1	-1%	-7%
CC1(C)CS(=O)(=O)N(c2ccc(S(=O)(=O)N3CCCc4ccccc43)cc2)C1=O	-9%	26%
COCCn1c(-c2ccc(Cl)cc2)n[nH]c1=S	-5%	3%
CSc1ccc(CN(C)C(=O)CN2CCC(c3nc4ccccc4s3)CC2)cc1	?	?
O=c1oc2c(CN3CCOCC3)c(O)ccc2cc1-c1ccc(Cl)cc1	43%[activator]	-7%
O=C(NCCC1CCN(Cc2ccccc2)CC1)C1CCCN(c2ncnc3nc[nH]c23)C1 (stereo not given)	-7%	-10%
CCOC(=O)c1c(C)[nH]c(C)c1S(=O)(=O)N1CCC(C(=O)Nc2ccc(OCC)cc2)CC1	-14%	8%
O=C(OCC(=O)c1c[nH]c2ccccc12)c1cccs1	0%	-9%
CCOC(=O)c1c(C)oc2nc(C)nc(NCC3CCN(Cc4ccc(F)cc4)CC3)c12	-4%	-15%
Cc1nc2nc(C)c(CCC(=O)NCc3cccc(Cl)c3)c(C)n2n1	-13%	-8%
O=C(NC1CC(=O)N(c2ccc(Cl)cc2)C1)c1ccc(S(=O)(=O)N2CCOCC2)cc1 (stereo not given)	-7%	-22%
CCC(C)(C(=O)NC1CCCCC1)N(Cc1cccs1)C(=O)CNC(=O)c1ccccc1 (stereo not given)	-10%	22%
CC1(c2ccccc2)CC(C)(C)N(C(=O)c2ccccc2Cl)c2ccccc21 (stereo not given)	25%	-9%
CCN1CCN(c2oc(-c3ccc(COc4ccc(C)cc4)o3)nc2C#N)CC1	-4%	-6%
COc1ccccc1N1CCN(C(=O)CCS(=O)(=O)c2cc(Br)cc3c2N(C(C)=O)CC3)CC1	-18%	-9%
Cc1ccccc1NC(=O)Cn1c(=O)n(CCCCCC(=O)NCc2ccc3c(c2)OCO3)c(=O)c2sccc21	22%	-1%
CC1CC(C(C)(C)C(C)C)CC/C1=N\O (stereo not given)	-5%	-8%
Cn1nc(C(=O)Nc2ccc(Cl)c(Cl)c2)c2ccccc2c1=O	24%	1%
COc1ccc(NC(=O)Cn2c(=O)oc3cc(S(=O)(=O)N4CCC(C)CC4)ccc32)c(OC)c1	?	10µM*
CCc1ccc(CNC(=O)c2nn(-c3ccc(CC)cc3)nc2CO)cc1	9%	-10%
COC(=O)c1ccc(C2C(c3ccc(OC)cc3)=C(O)C(=O)N2CCc2ccccc2)cc1 (stereo not given)	91%[activator]	0%
COc1ccc(S(=O)(=O)C(C#N)c2nc3ccccc3nc2N2CCN(C)CC2)cc1 (stereo not given)	38%[activator]	131%[activator]
CC(C)(CNC(=O)Nc1nccs1)N1CCc2ccccc2C1	-2%	4%
CCc1cccc(NC(=O)Cn2c(=O)n(Cc3ccccc3)c(=O)c3c(C)c(C(=O)N(C)C)sc32)c1	-26%	12%
CCc1ccc(NC(=O)c2cnn3c2NC(C(=O)O)=CC3c2cc(OC)ccc2OC)cc1 (stereo not given)	23%	10%
The list continues.
SMILES	2A firefly	2A Renilla
Cc1c(O)cccc1C(=O)N[C@@H](CSc1ccccc1)[C@H](O)CN1C[C@H]2CCCC[C@H]2C[C@H]1C(=O)NC(C)(C)C	-39%	-19%
COC(=O)c1ccc(COC(=O)CCC(=O)c2ccc(Cl)cc2)cc1	0%	-13%
COC(=O)c1ccc(Oc2coc3cc(OC(=O)c4cccs4)ccc3c2=O)cc1	0%	8%
CC1(C)Cc2nc(-c3ccccc3)nc(SCC(=O)N3CCCC3)c2CO1	-5%	-13%
COc1ccc2c(c1)c1c(c(=O)n(Cc3ccccc3)c(=O)n1CC(=O)Nc1cc(C)cc(C)c1)n2C	-13%	-7%
COc1ccc(NC(=O)COc2ccc(/C(C)=N/O)cc2)cc1	55%[activator]	23%
Cc1ccc2c(CN3CCN(Cc4ccccc4)CC3)cc(=O)oc2c1C	-10%	-18%
O=C(CSc1nc2ccccc2c(=O)n1-c1ccccc1)N1CCCC1	27%	31%[activator]
O=C(CCc1ncc(-c2c(F)cccc2F)o1)Nc1ccccc1F	161%[activator]	0%
COC(=O)c1occc1/C=C/C(=O)c1ccc(C#N)cc1	3%	18%
CN(C)c1ccc(C(=O)NCc2ccc3c(c2)CCN3C(=O)c2ccccc2)cc1	0%	-10%
NC(=O)c1ccccc1NC(=O)C(=O)c1c[nH]c2ccccc12	222%[activator]	20%
O=C(CCc1ccccc1)N(Cc1cccnc1)c1nc2c(F)cccc2s1	-7%	66%[activator]
NS(=O)(=O)c1ccc(NC(=O)COc2ncnc3ccc(Br)cc23)cc1	-15%	-11%
COc1ccc(CCNc2oc(-c3ccc(OC)cc3)nc2C#N)cc1	18%	16%
CC(C)n1nc(C(=O)OCC(=O)Nc2ccc(Cl)cc2F)c2ccccc2c1=O	-12%	-20%
CC(=O)N1CCCc2cc(S(=O)(=O)NCc3cccs3)ccc21	19%	-33%

Compound activity (PubChem BioAssay)

Some of the compounds tested (hit frequency here may not be typical).
